Bioassay records (PubChem BioAssay)
WNV NS2B-NS3 inh: blocks West Nile virus NS2B-NS3 protease activity; P06935; WNV NS2B-NS3 protease, fluorogenic substrate Ex360/Em465; stronger effect = lower value; z-score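 (tested at a level between 10 and 100 µM)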; actives 0.18% (n = 65,000); AID 577;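 active means z-score at -3 or under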;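 further: score is relative to mean and spread of the compound wells of a plate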
Target sequence (P06935 1371-1501 limits assumed): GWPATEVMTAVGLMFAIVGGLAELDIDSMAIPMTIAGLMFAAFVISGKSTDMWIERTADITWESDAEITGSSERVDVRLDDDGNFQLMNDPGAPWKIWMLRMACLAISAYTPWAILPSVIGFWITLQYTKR
Target sequence (P06935 1502-1679 limits assumed): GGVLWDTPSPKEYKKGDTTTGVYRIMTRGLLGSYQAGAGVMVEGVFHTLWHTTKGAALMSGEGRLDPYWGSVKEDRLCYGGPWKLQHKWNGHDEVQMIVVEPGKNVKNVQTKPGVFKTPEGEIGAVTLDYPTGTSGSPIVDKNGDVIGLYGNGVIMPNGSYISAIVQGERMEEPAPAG
Hsc70 ATP site: small molecules displacing fluorescent ligand from Hsc70 – biochemical, fluorescence polarization, primary screen (AID 568). Hsc70 fluorescence polarization, probe displacement; higher % means a stronger effect; strong numbers were not always called active. displacement, % at 20 µM, or IC50 in µM where a hit was titrated. 83,000 tested, under 10 active;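 active means displacement above 50% without optical interference and an IC50 on retest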;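 further: ATPase domain with a fluorescein-tagged ATP probe; 0% = vehicle and 100% = excess ADP; read after one hour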
MT1-MMP reporter: MT1-MMP gene expression reporter suppression – cell-based, luciferase reporter, luminescence (AID 618); MT1-MMP promoter luciferase reporter cells, luminescence; calls from a first round at 10 µM; hits with a dose series show EC50 in µM; actives 0.62% (n = 87,000);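 active means over half of the reporter light lost at 10 µM or EC50 under 50 µM; inactive means the rest and hits that failed the dose series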;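 further: actives suppress MT1-MMP promoter-driven transcription so potencies describe inhibitors; HT1080 fibrosarcoma cells; overnight exposure; toxic or luciferase-blocking compounds were not removed from the actives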
Numbers without * were called inactive; i = inactive; / = not tested or not shown.

SMILES	WNV NS2B-NS3 inh	Hsc70 ATP site	MT1-MMP reporter
CCN(CC)c1ccc(C2C(C(=O)OCCOC(C)C)=C(C)NC3=C2C(=O)CCC3)cc1 (stereo unspecified)	0.63	1.3%	i
CS(=O)(=O)NCc1nnc(SCC(=O)NC2CCCCC2)n1-c1ccc(F)cc1	-1.8	-2.6%	i
CCCCCC(=O)Nc1ccccc1N1CCN(c2ccccc2)CC1	-1.4	0.5%	i
Fc1cccc(-c2cc3nc4c(c(N5CCN(c6cnccn6)CC5)n3n2)CCCC4)c1	0.27	0.4%	i
CCCC(C(=O)NCc1ccco1)N(C(=O)CNS(=O)(=O)c1ccccc1)C1CCCC1 (stereo unspecified)	-0.11	0.1%	i
Cc1ccc(C)c(NC(=O)CSc2nnc(-c3ccccc3C)o2)c1	1.2	-2.3%	i
O=C(Nn1cnc2ccccc2c1=O)c1ccccc1Cl	1.1	-2.8%	i
CCOc1ccc(S(=O)(=O)N2CCN(C)CC2)c(C)c1C	0.31	5.3%	i
COc1cc([C@@H]2[C@H]3CN(C)CC=C3C(C#N)=C(N)C2(C#N)C#N)cc2c1OCO2	-0.3	44%	i
CCC(=O)Nc1cccc(-c2nnc(SCC(=O)NCc3ccco3)n2C)c1	1.9	-9.8%	i
O=C(C1CC1)N(CCc1ccccc1)Cc1nc2ccccc2c(=O)[nH]1	2.2	3.1%	i
COC(=O)Nc1ccc(Oc2ccccc2)cc1	-0.98	4.1%	i
O=C(Nc1cnn(C23CC4CC(CC(C4)C2)C3)c1)c1cnn2cccnc12	1.7	-1.1%	i
COc1ccc(C2CC(c3ccc(F)cc3)Nc3nc(N)nn32)cc1OC (stereo unspecified)	0.3	6.2%	i
CCCCCCCc1c(C)nc(N2CCOCC2)[nH]c1=O	/	-1.3%	i
Cc1nn2c3c(cnc2c1-c1ccccc1)C(=O)CC(c1ccco1)C3 (stereo unspecified)	-0.27	-3.5%	i
COC(=O)c1c(C#N)c(N)nc2c1CCC2	3	3.6%	i
CCOC(=O)C1=C(O)C(=O)N(c2ccc(S(N)(=O)=O)cc2)C1c1ccc(OC)cc1OC (stereo unspecified)	-0.2	-0.1%	i
COc1ccc(OC)c(C2=NOC(C(=O)Nc3cccnc3)C2)c1 (stereo unspecified)	-0.6	-4.5%	i
CCOC(=O)c1ccccc1NC1c2ccccc2C(=O)N1C1CCN(C(=O)OCC)CC1 (stereo unspecified)	-0.54	-0.8%	i
O=C(O)CCc1ccc(-c2cccs2)n1NC(=O)c1ccco1	0.56	-2.2%	i
N#CC12CCCCC1CC1CCCCC1(C#N)N2Cc1ccccn1 (stereo unspecified)	0.19	-11%	i
CCC(C)(C)n1nnnc1C(c1cc2cccc(C)c2[nH]c1=O)N1CCN(C(=O)c2ccco2)CC1 (stereo unspecified)	-1.5	1.2%	i
CCc1c(C)nc(/N=C(/NC(=O)c2ccccc2)Nc2ccccc2OC)[nH]c1=O	-0.42	9.8%	i
Cn1c(C(=O)NCc2ccccn2)cc2c(=O)n(C)c3ccccc3c21	-0.07	-1.8%	i
O=S(=O)(Nc1cccc2nsnc12)c1ccccc1	/	2.8%	i
COc1ccc(S(=O)(=O)N2CCN(Cc3ccc4c(c3)OCO4)CC2)c2ccccc12	-0.43	11%	i
Cc1c(Br)c([N+](=O)[O-])nn1C(C)C(=O)NCc1cccnc1 (stereo unspecified)	/	9.2%	i
Cc1c(C(=O)OC2CCCC2C)[nH]c2c1C(=O)CCC2 (stereo unspecified)	0.72	0.1%	i
CC(C)(C)C1CCc2[nH]nc(C(=O)O)c2C1 (stereo unspecified)	0.39	2.6%	i
COc1cc(-c2nc(-c3ccc(NC(=O)c4ccc(Br)o4)cc3)no2)cc(OC)c1OC	/	-5.2%	i
CC1C(=O)C(C)C(c2ccco2)NC1c1ccco1 (stereo unspecified)	-0.92	-2.6%	i
COc1cc(S(=O)(=O)N(Cc2ccccc2)Cc2ccccn2)ccc1-n1cnnn1	/	-1.3%	i
O=C(CC1SC2=NCCN2C1=O)Nc1ccc(Br)cc1 (stereo unspecified)	0.74	4.5%	i
CCN1CCN(Cc2nc3c(c(=O)n(C)c(=O)n3C)n2CC(=O)c2ccccc2)CC1	-0.5	1.5%	i
COCCNC(=O)CSc1nc2ccccc2c(=O)n1CCCC(=O)NCc1ccccc1	-0.03	2.0%	i
CSc1nnc(C2CCCN2)n1C (stereo unspecified)	2.4	-0.5%	i
Cc1occc1-c1nnc(SCC(=O)NC(=O)NC(C)C)n1N	0.54	-13%	i
COc1cc(OC)cc(C(=O)NC2CCSC2=O)c1 (stereo unspecified)	1.8	1.7%	i
O=C(C1CCN(S(=O)(=O)N2CCOCC2)CC1)N1CCc2ccccc21	1.4	-9.2%	i
Cc1ccc(-c2noc(CN3CCN(Cc4ccccc4)CC3)n2)cc1	1.7	-4.0%	i
COCCNc1nc(SCC(=O)N2CCN(c3ccccc3OC)CC2)nc2ccccc12	0.36	6.9%	i
Cc1cc(C)n(C(=O)CNC(=O)COc2ccccc2)n1	-1.7	-5.6%	i
CCc1c(C)nc2cc(-c3cccs3)[nH]n2c1=O	1.9	4.4%	i
CCOC(=O)Cc1csc(NC(=O)CCCCCN2C(=O)c3cccc4cccc(c34)C2=O)n1	/	-0.5%	i
O=S(=O)(CC(CN1CCCC1)N1CCCC1)c1ccc2ccccc2c1 (stereo unspecified)	-0.42	-5.8%	i
CCOC(=O)c1c(NC(C)=O)sc2c1CCCNC2=O	-0.22	3.3%	i
C[C@H](NC(=O)C1(c2ccccc2)CCN(C(=O)[C@H]2CSCN2C(=O)OC(C)(C)C)CC1)C(=O)O	0.23	-2.0%	i
Nc1ccc(N(c2ccccc2)c2ccc(N)cc2)cc1	/	-0.2%	i
N#CC(C(=O)Nc1ccccc1)=C1Nc2ccccc2N1	/	-0.4%	i
COC(=O)CSc1nc2ccccc2n1CC(=O)N(C(C)C)C(C)C	0.04	-1.3%	i
C=CCN(C(=O)CNC(=O)c1ccco1)C(C(=O)NC1CCCCC1)c1ccc(OC)cc1OC (stereo unspecified)	0.66	-3.5%	i
COc1ccc(N(C(=O)COc2ccccc2)C2C=CS(=O)(=O)C2)c(OC)c1 (stereo unspecified)	0.61	7.8%	i
COc1ccc(NC(=O)C2CCCN(S(=O)(=O)c3cccc4cccnc34)C2)cc1OC (stereo unspecified)	-0.37	-1.0%	i
N#CCCN(C1CCCCC1)S(=O)(=O)CCOc1ccccc1	-0.26	2.4%	i
O=S1(=O)CCN2C(=N1)SC1=C2CCN(Cc2ccccc2)C1	0.36	-7.1%	i
N[C@H](Cc1c[nH]c2ccccc12)C(=O)O	-0.44	3.9%	i
CC12CCC(C(=O)N3CCN(c4ncccn4)CC3)(c3nc4ccccc4nc31)C2(C)C (stereo unspecified)	1.1	1.8%	i
C=CCc1cccc2cc(NC(C)=O)c(=O)oc12	2	-1.1%	i
CC(=O)Nc1ccc(S(=O)(=O)NCc2ccc(C(=O)NCCN3CCCCCC3)cc2)cc1	-0.9	-2.0%	i

Entries of single compounds, looked up by structure. Order of screens: WNV NS2B-NS3 inh	Hsc70 ATP site	MT1-MMP reporter
Profile of CC(=O)Nc1ccc(S(=O)(=O)NCc2ccc(C(=O)NCCN3CCCCCC3)cc2)cc1 : -0.9	-2.0%	i
Profile of N#CCCN(C1CCCCC1)S(=O)(=O)CCOc1ccccc1 : -0.26	2.4%	i
Profile of O=S(=O)(CC(CN1CCCC1)N1CCCC1)c1ccc2ccccc2c1 (stereo unspecified) : -0.42	-5.8%	i
Profile of C=CCc1cccc2cc(NC(C)=O)c(=O)oc12 : 2	-1.1%	i
Profile of N[C@H](Cc1c[nH]c2ccccc12)C(=O)O : -0.44	3.9%	i

(cont.)
SMILES	WNV NS2B-NS3 inh	Hsc70 ATP site	MT1-MMP reporter
CCN(CC)S(=O)(=O)c1ccc(F)c(C(=O)NCCCN2CCOCC2)c1	-0.16	6.0%	i
O=C(c1ccccc1)c1coc2ccc(O)c(Cl)c12	0.35	-2.1%	i
CC(C)(C)n1nnnc1C(c1ccccc1F)N(Cc1ccco1)CC1CCCO1 (stereo unspecified)	1.1	4.9%	i
O=C(CSCc1ccccc1)Nc1ccc(Cl)cn1	/	-1.7%	i
COC(=O)Cn1nc(-c2ccccc2)c2ccccc21	0.53	5.3%	i
COc1ccc(/C(=N/O)C(C)(C)NO)cc1	/	4.1%	i
COc1ccc(C(=O)NCCC(C)C)cc1S(=O)(=O)N1CCOCC1	-0.36	7.0%	i
Cc1oc(-c2cccs2)[n+]([O-])c1C	0.31	-0.3%	i
CS(=O)(=O)N(CC(=O)N1CCCCCC1)c1ccc2c(c1)OCCO2	-0.64	-2.6%	i
CC(C)(C)c1nnc(NS(C)(=O)=O)s1	/	-1.6%	i
Cc1ccc(NS(=O)(=O)c2ccc3c(c2)oc(=O)n3C)cc1F	-0.51	8.1%	i
NC(=O)C1CCN(C(c2ccccc2F)c2nnnn2Cc2ccco2)CC1 (stereo unspecified)	0.11	-8.8%	i
CCN(CC)CCNC(=O)c1ccccc1C(=O)c1ncc[nH]1	-1.5	-2.4%	i
Cc1cc(S(=O)(=O)Nc2ccccc2C(=O)O)ccc1Cl	-0.61	-1.0%	i
O=C(O)[C@H](Cc1ccccc1)N1Cc2ccccc2C1=O	-1.2	2.3%	i

Rewritten as labelled records: entries from further up.
CCN(CC)CCNC(=O)c1ccccc1C(=O)c1ncc[nH]1
  WNV NS2B-NS3 inh: -1.5
  Hsc70 ATP site: -2.4%
  MT1-MMP reporter: i
Cc1cc(S(=O)(=O)Nc2ccccc2C(=O)O)ccc1Cl
  WNV NS2B-NS3 inh: -0.61
  Hsc70 ATP site: -1.0%
  MT1-MMP reporter: i
O=C(O)[C@H](Cc1ccccc1)N1Cc2ccccc2C1=O
  WNV NS2B-NS3 inh: -1.2
  Hsc70 ATP site: 2.3%
  MT1-MMP reporter: i

Additional records follow.
SMILES	WNV NS2B-NS3 inh	Hsc70 ATP site	MT1-MMP reporter
CC(C)c1ccc(O)c(NC(=O)c2cncc(Br)c2)c1	-0.16	-5.4%	i
CCOC(=O)c1sc(NC(=O)CSc2ncccn2)c(C#N)c1C	1.6	-1.8%	i
CCSc1nnc(NC(=O)CSc2nnc(Cc3cccn3C)n2CCc2ccccc2)s1	-0.94	-2.6%	i
CCc1cc(C(=O)OC)c(NC(=O)CC2NCCNC2=O)s1 (stereo unspecified)	-0.33	-5.8%	i
CC(C)OC(=O)CC(=O)c1sc2nc3c(cc2c1N)CN(C)CC3	-0.75	13%	i
CCOc1ccc(-n2c(SC)nc3c(c2=O)SCC3)cc1	-0.13	0.9%	i
CCCN(CCC)C(=O)CSc1nc2n[nH]c(C)c2c(=N)n1-c1ccc(OC)cc1	-0.95	-0.3%	i
COc1ccccc1NC(=O)COC(=O)c1cnccn1	/	1.2%	i
Cc1noc(C)c1COC(=O)c1ccc2c(c1)OCCO2	-0.83	-5.7%	i
CC(=O)Nc1ccc(N2C(=O)CC(N3CC(C)OC(C)C3)C2=O)cc1 (stereo unspecified)	0.98	-13%	i
Cc1csc(NC(=O)CSc2nnc(-c3ccco3)n2C)n1	-0.74	-8.3%	i
Cc1cccc(OCc2nnc(SCC(=O)N3CCc4ccccc43)n2C)c1	0.13	-0.7%	i
CN(Cc1ccco1)C(=O)C(Cc1ccccc1)NS(=O)(=O)c1ccc2c(c1)CCC(=O)N2 (stereo unspecified)	-1.8	4.1%	i
Cc1ccnc(NC(=O)CCC2CCCCC2)c1	0.79	7.1%	i
CC12C=CC3(CN(Cc4ccccc4)C(=O)C3C1C(=O)NCc1ccco1)O2 (stereo unspecified)	-0.48	-0.3%	i
Cc1ccc(S(=O)(=O)NC2=NCN(CCOC(=O)c3ccccc3)CN2)cc1	/	-4.1%	i
COc1ccc(-c2nc(SC)n(C(=O)c3ccco3)n2)cc1	-3	-1.3%	i
O=c1c2cn[nH]c2[nH]c(=S)n1-c1ccccc1	/	2.6%	i
COc1ccc(OC)c(S(=O)(=O)N(C)CC(=O)Nc2ccc3c(c2)OCO3)c1	1.5	1.0%	i
Cc1ccc(-c2oc3ncnc(N)c3c2-c2ccc(C)cc2)cc1	-0.77	-2.0%	i
CCC(C)OC(=O)n1ccc(C(=O)Nc2nccs2)n1 (stereo unspecified)	-0.2	5.2%	i
CCCCCCn1c(SCCCC)nc2c1c(=O)[nH]c(=O)n2C	-0.43	-1.6%	i
O=C(COc1ccc(Cl)cc1)Nc1ccc(Cl)cn1	-0.52	-5.3%	i
O=C(CSc1ncn[nH]1)N1CCN(S(=O)(=O)c2ccc(Cl)cc2)CC1	/	1.5%	i
CC(C)CNC(=O)c1ccccc1Oc1ccccc1	/	-1.6%	i
CN(C)CC(C)(C)NS(=O)(=O)c1ccc(Cl)cc1	0.77	-2.8%	i
Cc1nc2ncnn2c(C)c1CCC(=O)N1CCc2ccccc21	0.39	-1.6%	i
CCCCSc1nc(CCC)cc(=O)[nH]1	0.36	-0.1%	i
Cc1ccc(/C(N)=N/OC(=O)Oc2ccccc2)cc1	/	0.6%	i
O=C(C(Cc1ccccc1)n1cccc1)N1CCCCC1 (stereo unspecified)	-1	2.4%	i
C=CCNc1nc(-c2ccc(Cl)cc2)cs1	/	1.8%	i
CC(NC(=O)CN(C)Cc1nc2ccccc2c(=O)[nH]1)c1ccccc1 (stereo unspecified)	/	2.4%	i
c1ccc(CCc2nc(-c3cccnc3)no2)cc1	1.6	-2.9%	i

A portion of the library, so the mix of outcomes need not match the whole.
